# MT1-MMP act inh: blockers of MT1-MMP proenzyme processing, primary screen, HT1080 RFP-PRO-GFP cells, GFP/RFP fluorescence; Matrix metalloproteinase-14 (Homo sapiens), P50281; GFP/RFP ratio fluorescence, overnight; percent of plate control window, DMSO zero; GFP/RFP ratio change, % at 20 µM; actives 0.061% (n = 360,000);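 active = GFP/RFP ratio change of at least 30% with cell ATP level not reduced by more than half and red fluorescence within 50% of control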; also: strong numbers were not always called active
#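 Material – HT1080 RFP-PRO-GFP cells · Control set – DMSO wells and RFP-L50D-GFP cells · Incubation – overnight cell settling, then overnight compound exposure, 37 °C, 5% CO2 · Compound dosing – single-point 20 µM compound, 1% DMSO · Read-out – GFP/RFP fluorescence ratio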
# PABP FP inh: PABP poly(A) RNA binding inhibitors, primary screen, biochemical, fluorescence polarization, uHTS; Polyadenylate-binding protein 1 (Homo sapiens), P11940; inhibition, % at 35 µM; actives 1% (n = 290,000); AID 2014, 2009;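 active = 50% or more with normal probe brightness, or confirmed in later tests; inconclusive = above 50% with abnormal brightness, or retests that disagree; inactive = below 50% or failed in later tests; about a fifth of its hits are not listed in these tables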;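 also: calls also rest on retests at 20 µM and on dose response follow-up; controls were probe without protein and protein plus probe with vehicle; some compounds called inactive have numbers as strong as hits; many hits fall short of the cut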
# UUG fidelity: modulators of yeast start codon fidelity, primary screen, whole organism, S. cerevisiae, single point, plate reader; activity score, % at 18.7 µM; S. cerevisiae UUG-firefly luciferase reporter, luminescence/redox ratio; actives 0.13% (n = 350,000);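 active = replicate mean at a twofold rise or more, about +100% in these data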;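 also: firefly luciferase made from a UUG start codon reports start codon fidelity; reporter light over untreated wells divided by growth signal over untreated wells; some hits fall short of that in this replicate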
# CSC inhib: cancer stem cell viability inhibitors, primary screen, luminescence. cancer stem cell-like cells viability. inhibition, % at 7.5 µM. actives 1.1% (n = 300,000);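 active = mean at 75% or more and at least half the replicates too; inconclusive = mean and replicates disagree; tested in HMLE shEcad cells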;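 also: 0% = median of negative and 100% = median of positive control wells; the first replicate is given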
# HIV Env fusion: inhibitors of HIV-1 Env-driven cell-cell fusion, primary screen, HeLa-JRFL effector, CEM21 target cells, luciferase. actives 1.1% (n = 360,000). inhibition, % at 12.3 µM;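 active = mean replicate inhibition score of at least 50 and every replicate individually at or above 50; inconclusive = only one of the two criteria met; inactive = mean below 50 and not all replicates reaching 50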;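 also: 0% = plate neutral controls and 100% = maraviroc near 300 nM; one replicate is shown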
# eIF4H FP inh: human eIF4H binding inhibitors, primary screen, translation initiation inhibitor project, biochemical, uHTS, fluorescence polarization; inhibition, % at 35 µM; eIF4H fluorescence polarization binding assay; actives 0.94% (n = 290,000); Eukaryotic translation initiation factor 4H (Homo sapiens), Q15056;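 active = 50% or more with normal probe brightness, or confirmed in later tests; inconclusive = above 50% with abnormal brightness, or retests that disagree; inactive = below 50% or failed in later tests; about a fifth of its hits are not listed in these tables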;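 also: calls also rest on retests at 20 µM and on dose response follow-up; 0% = protein and probe with vehicle and 100% = probe without protein; strong numbers were not always called active; many hits fall short of the cut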
# Rce1 inhib: yeast Rce1p protease inhibitors, primary screen, biochemical, fluorescence, cell-free homogeneous; CAAX prenyl protease 2 (Saccharomyces cerevisiae (strain ATCC 204508 / S288c)), Q03530; yeast membranes, quenched prenylated peptide cleavage fluorescence; calls only; actives 0.27% (n = 290,000);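 active = fall in fluorescence gain of 50% or more versus controls, with final raw signal at or below 3038400; inconclusive = same 50% fall but final raw signal above 3038400; inactive = fall in fluorescence gain under 50%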;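 also: plate controls were neutral control wells for no effect and wells lacking membranes for full effect; tested at 10 µM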
# Target sequence (Q03530 whole entry, looked up): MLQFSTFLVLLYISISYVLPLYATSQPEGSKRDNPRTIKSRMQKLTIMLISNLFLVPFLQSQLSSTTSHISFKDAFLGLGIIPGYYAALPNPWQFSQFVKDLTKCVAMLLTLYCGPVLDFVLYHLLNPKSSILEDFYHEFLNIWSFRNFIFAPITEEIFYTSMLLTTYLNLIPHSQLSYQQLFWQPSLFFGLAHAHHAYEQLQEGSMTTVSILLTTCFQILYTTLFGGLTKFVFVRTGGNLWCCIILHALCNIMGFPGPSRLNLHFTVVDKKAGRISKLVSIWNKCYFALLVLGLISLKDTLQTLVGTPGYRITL
# eIF4H FP inh retest: also measured in eIF4H FP inh; calls as there; inhibition, %; compound at 20 µM; confirmation average;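 mean of two retest wells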
# PABP FP inh retest: further read-out of PABP FP inh, marked with its call; inhibition, %; compound at 20 µM; confirmation repeats;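 mean of two retest wells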
# MT1-MMP act inh RFP: second read-out of MT1-MMP act inh, no call of its own (marks repeat the call); RFP signal change, %; measured here: RFP expression control read;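 0 = vehicle wells; hits needed this value within 50% of zero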
# Numbers without * were called inactive; i = inactive; ? = inconclusive; . = not tested or not shown; & = joins results of further samples.
SMILES,MT1-MMP act inh,MT1-MMP act inh RFP,PABP FP inh,UUG fidelity,CSC inhib,HIV Env fusion,eIF4H FP inh,Rce1 inhib,others
COc1ccc(N(Cc2nnc3n2CCCCC3)C(=O)Nc2ccccc2)cc1,1,2,-4,-22,5,-4,2,i,
Cc1ccc(CNS(=O)(=O)c2c(C(=O)N3CCCCCC3)c(C)n(C)c2C)cc1,-1,2,5,24,-18,16,8,i,
Cn1c(=O)[nH]c(=O)c2c1nc(N1CCCCC1)n2CC(O)COc1ccccc1 (stereo not drawn),-2,-2,6,2,-12,-8,-13,i,
O=C1NN=C(c2ccc(Cl)cc2)CC1c1c[nH]c2ccccc12 (stereo not drawn),-2,-6,3,.,-4,13,3,i,
CCCCn1c(NC(=O)c2ccco2)c(S(=O)(=O)c2ccc(C)cc2)c2nc3ccccc3nc21,-41,5,-6,.,.,15,10,i,
O=C(CCN1C(=O)/C(=C/c2ccc3c(c2)OCO3)SC1=S)Nc1ccc(C(=O)O)cc1,0,0,6,-22,-2,-2,20,i,
COCCCNC(=O)c1ccc(Cn2c(=O)c3ccccc3n(Cc3cc(C)ccc3C)c2=O)cc1,-5,-3,1,-11,22,19,7,.,
O=C(COC(=O)c1ccco1)c1ccc(S(=O)(=O)N2CCCCC2)cc1,-2,1,-6,-9,1,0,-5,i,
COc1ccc(NC(=S)NCCc2ccc(Cl)cc2)c(OC)c1,3,-2,22,-19,-11,-27,0,i,
CCNC(=S)NS(=O)(=O)c1ccc(Cl)cc1,-2,4,-4,-31,-14,.,-18,i,
O=C(Nc1ccnn1C1CCN(C2CCC2)CC1)c1ccccc1,-4,1,5,2,-4,-7,2,i,
COC(=O)CCC(=O)N1CCCC(N2CCN(c3cccc(C(F)(F)F)c3)CC2)C1 (stereo not drawn),0,0,-15,-8,-13,-3,5,i,
O=C1NC2(CCCCCC2)Oc2ccccc21,-1,1,1,.,-10,0,-10,i,
CCN(CC)C(=O)CSc1nnc(-c2ccccn2)n1-c1ccccc1OC,-5,1,8,-8,.,-1,-12,i,
CCOC(=O)CSc1nc(-c2ccccc2)nc2ccc(C)cc12,1,1,4,.,17,12,-1,i,
CCOc1ccc(OCCC(=O)OCC(=O)c2c(N)n(CC(C)C)c(=O)n(C)c2=O)cc1,0,-5,.,11,.,6,.,.,
C#CCOc1ccc(C2C3=C(CC(C)(C)CC3=O)N(CC(=O)O)C3=C2C(=O)CC(C)(C)C3)cc1,-5,0,12,-16,-7,-2,9,i,
C=CCNc1nc(Cl)nc(Nc2ccc(OCC)cc2)n1,3,3,4,-1,-1,-4,-3,i,
Cc1nn(Cc2ccccc2)c(C)c1NC(=O)CSc1nc2c(c(C(F)(F)F)n1)CCc1ccccc1-2,-1,1,0,.,16,-14,-10,i,
CSCc1c(C(=O)Nc2ccc(N3CCOCC3)cc2)oc2ccccc12,4,0,-6,-2,-3,.,-5,i,
COc1ccc([C@@H]2[C@@H]3C(=O)N(C(C)(C)C)C(=O)[C@@H]3[C@]3(Cc4ccccc4)C(=O)N(c4cccc(F)c4)C(=O)N23)cc1,-5,-6,.,-2,-5,45,.,i,
Cc1ccc(CCNC(=O)C2CCN(S(=O)(=O)N3CCCCC3)CC2)cc1,-4,-1,12,9,-13,-22,7,i,
COc1ccc(NC(=O)Nc2ccc3c(c2)CC(=O)N([C@H](C)CO)C[C@@H](C)[C@H](CN(C)C(=O)Nc2ccccc2)O3)cc1,-1,-1,.,3,.,-2,.,.,
COC(=O)N1CCN(CCc2ccccc2)CC1,3,5,-10,-9,0,0,-4,i,
Cc1cccc(C(=O)Nc2ccnc(-c3ccncc3)n2)c1,0,-2,0,.,7,17,6,i,

# Next part, starting with the last three of the part before.
SMILES,MT1-MMP act inh,MT1-MMP act inh RFP,PABP FP inh,UUG fidelity,CSC inhib,HIV Env fusion,eIF4H FP inh,Rce1 inhib,others
COc1ccc(NC(=O)Nc2ccc3c(c2)CC(=O)N([C@H](C)CO)C[C@@H](C)[C@H](CN(C)C(=O)Nc2ccccc2)O3)cc1,-1,-1,.,3,.,-2,.,.,
COC(=O)N1CCN(CCc2ccccc2)CC1,3,5,-10,-9,0,0,-4,i,
Cc1cccc(C(=O)Nc2ccnc(-c3ccncc3)n2)c1,0,-2,0,.,7,17,6,i,
CCCc1nnc(NC(=O)C(CC)OC(=O)c2cc(C)nc3ccccc23)s1 (stereo not drawn),-2,-2,-10,-15,-16,12,-4,i,
O=[N+]([O-])c1ccc2[nH]c(O)c(N=NC(=S)NCC3CCCO3)c2c1 (stereo not drawn),13,2,-12,-19,-2,-25,11,i,
COc1ccc(NC(=S)NCc2ccc(F)cc2)c(OC)c1,1,-2,-14,-14,-12,12,-5,i,
CCN(CC)CCNC(=O)/C(=C\c1cccn1C)NC(=O)c1cccs1,4,2,7,.,-3,4,-2,i,
O=C(Nc1nncs1)C12CC3CC(CC(C3)C1)C2,-3,-3,-1,-5,-8,-6,-6,i,
CN1CCN(CCC(=O)N/N=C/c2cc3c(cc2[N+](=O)[O-])OCO3)CC1,3,3,7,-24,-2,1,2,i,
C[C@H]1CN([C@@H](C)CO)C(=O)CCCn2cc(nn2)CO[C@@H]1CN(C)C(=O)Nc1ccc(-c2cccs2)cc1,0,3,.,-2&-7,.,-8,.,.,
COc1ccccc1OCc1ccc(C(=O)NC(C)c2ccccc2)o1 (stereo not drawn),-2,-2,6,54,.,10,-6,i,
COc1cc(C(=O)OC(C)C(=O)NC2CCCCC2C)c([N+](=O)[O-])cc1OC (stereo not drawn),.,.,.,-6,4,9,.,i,
O=C(CCn1nc(-c2ccccc2)c2ccccc2c1=O)NCC1CCCO1 (stereo not drawn),10,3,-5,3,1,-1,-2,i,
CCCN1C2CCCC1CC(NC(=O)c1ccccc1OCC)C2 (stereo not drawn),0,0,6,.,-8,-90,-4,i,
COc1ccc(-c2nnc3n(CCc4ccccc4)c(=O)c4ccccc4n23)c(OC)c1,4,-6,2,-12,-10,13,-6,i,
O=C(CN(C(=O)CSc1nc2ccccc2o1)c1ccccc1F)NC1CCCCC1,-4,-6,11,.,.,-12,6,.,
O=C(NCc1ccccc1Cl)C1CCN(S(=O)(=O)c2cccs2)CC1,-3,-1,10,-7,1,3,2,.,
COCCN1C(=O)C(O)=C(C(C)=O)C1c1ccc(F)cc1 (stereo not drawn),4,3,24,-10,.,.,-7,i,
Cc1cc(N(CC(=O)NC(C)C)S(C)(=O)=O)ccc1Br,0,2,-4,.,-5,-7,-6,i,
COc1ccc(CCN(Cc2ccccn2)C(=S)Nc2ccccc2Cl)cc1OC,-1,-1,-2,.,-19,3,10,i,
Cc1ccc2[nH]c(=O)cc(C(=O)OCC(=O)c3ccccc3)c2c1,2,6,3,-12,-13,.,5,i,
CCCc1c(C)[nH]c2ccc(NC(C)=O)cc2c1=O,-2,4,0,-11,5,.,-5,i,
O=C1CC2(CCN(C(=O)c3ccccc3[N+](=O)[O-])CC2)Oc2ccccc21,-5,-4,.,-5,-12,5,.,i,
O=C(Nc1sccc1C(=O)N1CCOCC1)c1cccnc1,-1,4,18,-19,-8,.,9,i,
COc1ccc(CCC(=O)OCC(=O)c2c(N)n(CC(C)C)c(=O)n(C)c2=O)cc1,4,-19,2,-2,-4,-3,-12,i,
CCCC(C(=O)NC1CCCC1)N(CC1CCCO1)C(=O)c1snc(C(N)=O)c1N (stereo not drawn),-7,4,-8,-9,6,26,1,i,
O=C(NNC(=S)NC(=O)c1cccnc1)c1ccc(Cl)cc1,7,6,5,-42,17,?,22,i,
Cc1nn(C)c(N)c1C(O)(c1nccn1C)C(F)(F)F (stereo not drawn),3,3,-2,-7,-2,.,7,i,
# The results go on.
SMILES,MT1-MMP act inh,MT1-MMP act inh RFP,PABP FP inh,UUG fidelity,CSC inhib,HIV Env fusion,eIF4H FP inh,Rce1 inhib,others
O=C(c1cc(COc2ccc3ncccc3c2)on1)N1CCCCCC1,-2,-24,8,.,15,12,2,i,
O=C(NCC(=O)N1CCN(Cc2ccccc2)CC1)c1ccccc1Cl,3,1,.,-11,.,2,.,.,
CCOc1ncccc1C(=O)OCC(=O)Nc1cc(C)ccc1C,-2,-2,7,-10,-18,-80,4,i,
O=C(OCCCN1CCCCC1)c1ccc(O)cc1,2,7,-1,3,13,.,-7,i,
CS(=O)(=O)N1CCN(C(=O)c2cc(-c3ccccc3)nc3ccccc23)CC1,2,9,2,8,-4,-36,6,i,
COc1cccc(NC(=O)c2ccccc2N2C(=O)C3C4C=CC(C4)C3C2=O)c1 (stereo not drawn),0,3,-6,5,-7,-25,-7,i,
CCOC(=O)C1CCCN(c2c(NCCCN(C)Cc3ccccc3)c(=O)c2=O)C1 (stereo not drawn),2,-1,18,-23,-10,-4,4,i,
COc1ccc(CC(=O)Nc2c(C(=O)N3CCN(c4ncccn4)CC3)oc3ccccc23)cc1,0,-1,1,10,-9,-2,-4,i,
C[C@H](NC(=O)c1nc[nH]c1C(=O)N[C@@H](C)c1ccccc1)c1ccccc1,-9,-14,.,6,-12,11,.,.,
CC(NC(=O)c1ccco1)C(=O)OCC(=O)N1CCCCCC1 (stereo not drawn),-1,5,.,-16,-1,.,.,.,
CCCn1c(N)c(N(CCOC)C(=O)COC(=O)c2ccccc2NCCO)c(=O)[nH]c1=O,0,3,.,-11,3,10,.,?,
Cn1cc(S(=O)(=O)N2CCc3ccccc32)cc1C(=O)NC(C)(C)C,6,-27,6,-8,1,.,0,i,
CCOC(=O)C1CCCN(c2c(NCCCN(CC)c3ccccc3)c(=O)c2=O)C1 (stereo not drawn),4,1,-7,-14,-4,-6,-9,i,
N#C/C(=C(/O)c1ccc2c(c1)OCO2)c1nc2cc(C(F)(F)F)ccc2s1,-8,-29,13,-11,79*,-11,2,i,
COc1ccc(NC(=S)N(CCO)Cc2ccccc2)cc1,2,0,61,.,-11,.,-1,i,eIF4H FP inh retest=28;PABP FP inh retest=36
COc1ccc(C/C(C)=N/NC(=O)c2cccnc2)cc1,1,5,2,.,-2,3,-10,i,
Cc1onc(-c2ccccc2)c1C(=O)N1CCCCCC1,1,1,-7,-8,-6,-1,-14,.,
O=C(COc1ncnc2c(Cl)cc(Cl)cc12)N1CCCCC1,2,1,-11,-13,-5,-12,-11,i,
O=C(CNC(=O)c1ccc(Cl)cc1)Nc1ccccc1C(F)(F)F,2,2,4,.,-9,-1,12,i,
CCCCC(NC(=O)Cc1c(C)c2cc3c4c(oc3c(C)c2oc1=O)CCCC4)C(=O)O (stereo not drawn),-2,0,17,-8,-9,4,-7,i,
CCCOc1ccc(Cl)cc1Nc1nc(NCCO)nc(N2CCCC2)n1,5,5,.,-16,7,-2,.,i,
Cc1cc(S(=O)(=O)N2CCOCC2)ccc1OCC(=O)Nc1ccc(F)cc1F,5,3,0,-6,.,-12,-5,i,
COc1cccc(OC)c1-c1cnc(NC(C)=O)cn1,5,5,.,-12,.,9,.,.,

# Compound activity (PubChem BioAssay)

# A portion of the library. The share of hits here may be higher or lower than overall.
